MT1-MMP reporter: inhibitors of MT1-MMP promoter transcription, cell-based, luciferase reporter, luminescence (AID 618) | calls from a first round at 10 µM; hits with a dose series show EC50 in µM | 87,000 tested, 0.62% active | MT1-MMP promoter luciferase reporter cells, luminescence;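 active = over half of the reporter light lost at 10 µM or EC50 under 50 µM; inactive = the rest and hits that failed the dose series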;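 also: actives suppress MT1-MMP promoter-driven transcription so potencies describe inhibitors; HT1080 fibrosarcoma cells; overnight exposure; toxic or luciferase-blocking compounds were not removed from the actives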
WNV NS2B-NS3 inh: inhibitors of WNV NS2B-NS3 protease, primary screen, biochemical, fluorogenic substrate. 65,000 tested, 0.18% active. fluorogenic substrate Ex360/Em465; stronger effect = lower value. z-score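 (tested at a level between 10 and 100 µM)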. AID 577, 2007. Genome polyprotein (West Nile virus), P06935;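 active = z-score at -3 or under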;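 also: score is relative to mean and spread of the compound wells of a plate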
Target sequence (P06935 1371-1501 limits assumed): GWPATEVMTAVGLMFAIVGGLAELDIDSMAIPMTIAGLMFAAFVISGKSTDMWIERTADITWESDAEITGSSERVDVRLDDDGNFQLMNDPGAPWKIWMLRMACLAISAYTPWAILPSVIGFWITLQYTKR
Target sequence (P06935 1502-1679 limits assumed): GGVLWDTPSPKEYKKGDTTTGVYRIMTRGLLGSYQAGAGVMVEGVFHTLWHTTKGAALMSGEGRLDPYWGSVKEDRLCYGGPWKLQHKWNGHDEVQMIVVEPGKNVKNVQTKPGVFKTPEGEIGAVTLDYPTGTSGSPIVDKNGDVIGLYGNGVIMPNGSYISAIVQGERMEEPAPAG
Starred values were filed as active, the others as inactive; i = inactive; · = not tested or not shown. This is a subset. The share of hits here may be higher or lower than overall.

cpd | SMILES | MT1-MMP reporter | WNV NS2B-NS3 inh
1 | O=C(NCc1ccc2c(c1)OCO2)C1CCCN(S(=O)(=O)c2cccc3nonc23)C1 (stereo not drawn) | · | -0.74
2 | O=S(=O)(NCc1ccc2c(c1)OCO2)c1cccc2nsnc12 | · | -0.79
3 | COc1ccc(N2CCN(C(=O)CSc3nnc(COc4cccc5cccnc45)o3)CC2)cc1 | · | -0.37
4 | CCOC(=O)C(C)Oc1ccc2c(C)cc(=O)oc2c1C(C)=O (stereo not drawn) | · | 0.45
5 | Cn1cc(CC(=O)N2CCN(c3ccc(Cl)cc3)CC2)c2ccccc21 | · | 2.2
6 | CCCCCOC(=O)c1[nH]c2c(c1C)C(=O)C(C(=O)OC)C(C)C2 (stereo not drawn) | · | 0.0042
7 | O=C(CSc1nnc(Cn2c(=O)sc3ccccc32)n1-c1ccccc1)Nc1nccs1 | · | 0.16
8 | CC1CCCC(N2CCN(C(=O)c3ccc(F)cc3)CC2)C1 (stereo not drawn) | · | -0.54
9 | CC1CCN(C(=O)CSc2nnc(CNC(=O)COc3ccc(Cl)cc3)o2)CC1 | · | 0.94
10 | O=C(c1cc2nc(-c3ccccc3)cc(C(F)(F)F)n2n1)N1CCOCC1 | · | -0.99
11 | Cc1ccnc(NC(=O)Nc2ccc3c(c2)N(C)C(=O)CS3)c1 | · | 1.2
12 | C=CCOC(=O)C1=C(C)NC(=O)NC1c1ccc(Cl)cc1 (stereo not drawn) | · | -0.95
13 | CCSc1nnc(NC(=O)C2CC=CCC2C(=O)O)s1 (stereo not drawn) | · | 0.56
14 | COc1ccccc1OCCSc1nnc(C)n1-c1ccccc1 | · | 1.4
15 | COc1ccc(S(=O)(=O)N2CCCCC2)cc1C(C)C | · | 0.12
16 | CC1CC(C)CN(c2nc3c(c(=O)n(C)c(=O)n3C)n2C)C1 (stereo not drawn) | · | -1.3
17 | COc1ccc(C2C3=C(CC(C)(C)CC3=O)Oc3ncn(CCO)c(=N)c32)cc1OC (stereo not drawn) | · | -0.18
18 | CCOc1ccccc1NC(=O)C1CCN(S(=O)(=O)c2c(C)noc2C)CC1 | · | -0.96
19 | CCOC(=O)c1ccc(NC(=O)c2ccc(C)c(S(=O)(=O)N3CCOCC3)c2)cc1 | · | -0.17
20 | Cc1cc(OCCN2CCCC2)ccc1C(C)C | · | -0.45
21 | CCn1c(Cc2ccc(OC)cc2)nnc1SCC(=O)Nc1nc2ccccc2s1 | · | -0.1
22 | CCCCCn1c(SCCOCC)nc2c1c(=O)[nH]c(=O)n2C | · | -0.69
23 | c1cncc(C2Nc3ccccc3-c3nc4ccccc4n32)c1 (stereo not drawn) | · | 0.03
24 | O=C(CSCc1ccccc1)N1CCN(c2ccc(F)cc2)CC1 | · | -1
25 | COC(=O)c1cccc(NC(=O)CSc2nc(=O)cc(N)n2-c2ccccc2)c1 | · | -0.38
26 | Cc1nn(-c2nnc(C)c(=O)[nH]2)c(C)c1SCC(=O)Nc1ccc(F)cc1 | · | -0.12
27 | Cn1nnnc1SCC1=C(C(=O)O)N2C(=O)[C@@H](NC(=O)[C@H](O)c3ccccc3)[C@H]2SC1 | · | -0.35
28 | O=C(NCc1n[nH]c(=S)n1-c1ccccc1)c1ccco1 | · | 1.2
29 | O=C1CCCc2c1cc(C(=O)NC1CCSC1=O)c(=O)n2-c1ccccc1 (stereo not drawn) | · | 1.3
30 | Cc1cc(NC(=O)CCCOc2ccc(Cl)cc2Cl)no1 | · | 0.25
31 | C=CCn1c(N)c(C(=O)NCc2cccnc2)sc1=S | · | 0.25
32 | CCOC(=O)C(/C(N)=N/C(=O)Nc1ccccc1)=C(\C)O | · | -0.6
33 | C/C(=C1/SC(N2CC(C)OC(C)C2)=NC1=O)c1ccccc1 (stereo not drawn) | · | -0.35
34 | CCCN(CCC)C(=O)Cn1c(=O)n(CCCCC(=O)NCc2ccco2)c(=O)c2ccccc21 | · | 0.36
35 | Cc1cccc(N2CCN(CCNC(=O)c3cc4c(s3)CS(=O)(=O)C4)CC2)c1C | · | -0.3
36 | C/C(=C\c1ccccc1)CN1CCN(c2ccccc2)CC1 | · | 0.51
37 | CCOC(=O)NC1(C(F)(F)F)NC(=O)N(C2CCCCC2)C1=O (stereo not drawn) | · | 1.1
38 | COc1ccccc1CNC(=O)C1CCCN(S(=O)(=O)c2c(C)[nH]c(=O)[nH]c2=O)C1 (stereo not drawn) | · | -1.2
39 | Cc1cc2ccccc2n1CCNC(=O)C1CC1 | · | -1.1
40 | NC(=O)COc1ccc(=O)n(-c2ccccc2)n1 | · | 0.24
41 | CC(NC(=O)c1cc2ccccc2o1)c1cccs1 (stereo not drawn) | · | -0.3
42 | O=C(C(c1ccccc1)c1ccccc1)N1CCN(Cc2ccccn2)CC1 | · | 0.04
43 | CCN1CCN(C(c2ccc(F)cc2)c2nnnn2Cc2cccs2)CC1 (stereo not drawn) | · | -1.1
44 | CCOc1ncccc1C(=O)OCc1cc(=O)n2c(n1)sc1ccccc12 | · | -0.16
45 | COc1cc2[nH]c(=O)n3nc(-c4ccccc4)nc3c2cc1OC | · | 0.36
46 | O=C(NC1CC1)c1ccc2c(c1)ncn2C1CCCC1 | · | 0.37
47 | CCC(C)(C)n1nnnc1C(c1cccnc1)N1CCCc2ccccc21 (stereo not drawn) | · | 0.93
48 | CCCCSc1nnc(-c2ccc(NC(=O)CC)cc2)n1C | · | -1.7
49 | c1ccc2[nH]c(-c3cscn3)nc2c1 | · | -0.31
50 | CCCCc1nc2ccccc2c(NC(=O)CN2CCN(C)CC2)c1CCC | · | -1.3
51 | CC(C)c1ccc(NS(=O)(=O)c2cn(C)c(=O)n(C)c2=O)cc1 | · | -1
52 | COc1cc(NS(=O)(=O)c2ccc(N)cc2)nc(OC)n1 | · | -0.47
53 | COc1ccc2c(c1)[nH]c1c(=O)n(CC3CCCO3)cnc12 (stereo not drawn) | · | 0.89
54 | O=C(CCc1nc(-c2cccs2)no1)Nc1cnc2ccccc2c1 | · | -0.7
55 | CC(=O)c1cc(-c2ccccc2)[nH]c1N1CCOCC1 | · | -0.25
56 | CCc1ccc(-c2nc(CSCC(=O)N3CCN(c4ncccn4)CC3)c(C)o2)cc1 | · | 0.8
57 | C=CCN(c1ccc(C(=O)N2CCCC2)cc1)S(C)(=O)=O | · | 1.2
58 | CCOc1ccc(C(=O)COC(=O)CC)cc1 | · | 1.9
59 | NC(=O)c1ccc(-c2ncc(-c3ccccc3)o2)cc1 | · | 0.97
60 | c1csc(CCNc2ncnc3sc4c(c23)CCC4)c1 | · | 0.35

Going on with the list.
cpd | SMILES | MT1-MMP reporter | WNV NS2B-NS3 inh
61 | COc1cc(CN2CCC(C(=O)N3CCN(c4ccccc4F)CC3)CC2)cc(OC)c1OC | · | -0.62
62 | O=C(O)c1ccccc1NS(=O)(=O)c1ccc2c3c(cccc13)C(=O)N2 | · | -0.67
63 | Cc1ccc(CCNC(=O)C2CCN(S(=O)(=O)N3CCCC3)CC2)cc1 | · | -1.3
64 | O=C(Nc1cccc(F)c1)C1CC(=O)N(c2ccc(Cl)cc2)C1 (stereo not drawn) | · | -0.7
65 | O=C(O)c1ccccc1C(=O)NCc1ccccc1 | · | 0.52
66 | O=C(Nc1nnc(C2CC2)o1)c1ccc(S(=O)(=O)N2CCCc3ccccc32)cc1 | · | 1.3
67 | CN(Cc1ccccc1)C(=O)CCCn1c(=O)[nH]c2cc(Cl)ccc2c1=O | · | 0.69
68 | COc1ccc(Br)cc1CNC(=O)C1CCN(S(=O)(=O)N2CCCC2)CC1 | · | 1.3
69 | O=C(O)c1ccc(NS(=O)(=O)c2cc(Cl)ccc2Cl)cc1O | · | 0.58
70 | Cc1c(C(=O)OCCOc2ccccc2)[nH]c2c1C(=O)CCC2 | · | -0.93
71 | CC1=C(C(=O)OCC(C)C)C(c2ccccc2Cl)NC(=O)N1C (stereo not drawn) | · | -2
72 | O=c1[nH]c(NCc2ccco2)nnc1Cc1ccccc1Cl | · | 0.83
73 | COc1ccc(-c2noc(CCC(=O)NCCN3CCN(c4ccccc4F)CC3)n2)cc1 | · | -0.49
74 | COc1ccc(OC)c(CNC(=O)C2CCCN(C(=O)N(C)C)C2)c1 (stereo not drawn) | · | 1.5
75 | Cc1nc2ccccc2c(=O)n1CCCO | · | 2.6
76 | O=C1CC(N(Cc2ccco2)C(=O)Nc2ccc(F)cc2)C(=O)N1c1ccc(F)cc1 (stereo not drawn) | · | -0.05
77 | Cc1occc1C(=O)NCc1ccc2c(c1)OCO2 | · | 3.4
78 | COc1ccc2oc(=O)c(C(=O)N3CCCc4ccccc43)cc2c1 | · | -1.7
79 | C=CC(O)Cc1c(C)n[nH]c1C (stereo not drawn) | · | -0.9
80 | CCC1(C)C2(C#N)C(N)=NC(OC)(OC)C12C#N (stereo not drawn) | · | -0.19
81 | O=C(CCNS(=O)(=O)c1cccc2nsnc12)N1CCN(c2ccccn2)CC1 | · | -0.04
82 | CCNc1nc2c(c(=O)n(C)c(=O)n2C)n1Cc1ccc(Cl)cc1 | · | -0.62
83 | CCc1cc(C(=O)OC)c(NC(=O)c2cc(Br)cs2)s1 | · | 0.12
84 | CCOC(=O)c1cc2c(=O)n3ccccc3nc2n(CCCOC)c1=NC(=O)C(C)(C)C | · | 1.7
85 | COc1ccc(CN2CC(C(=O)NCCCN3CCN(C)CC3)CC2=O)cc1 (stereo not drawn) | · | -0.24
86 | COc1ccc(-c2nc3ncccn3c2Nc2ccc3c(c2)OCCO3)cc1 | · | 1.7
87 | C[C@]12C=CC(=O)C=C1CC[C@H]1[C@@H]3C[C@@H](O)[C@](O)(C(=O)CO)[C@@]3(C)C[C@H](O)[C@@]12F | · | -0.01
88 | Cc1cc(C)cc(N2CC(C(=O)O)CC2=O)c1 (stereo not drawn) | · | -0.99
89 | COCCNC(=O)c1c(N)n(CCC2=CCCCC2)c2nc3ccccc3nc12 | · | 0.15
90 | COc1ccc(CCNC(=O)CSc2nnc(CNC(=O)c3ccccc3F)o2)cc1OC | · | 0.5
91 | Cc1cccc(OCCCC(=O)Nc2ccc(N3CCOCC3)cc2)c1 | · | 2.3
92 | C=CCn1c(COc2cccc3ccc(C)nc23)nnc1SCC(=O)OC | · | 0.32
93 | COc1cc(OC)cc(-c2nc(-c3ccccc3)no2)c1 | · | 0.17
94 | S=c1[nH]nc(-c2ccc3ccccc3n2)o1 | · | -1.2
95 | COc1ccccc1N1CCN(CCC(=O)Nc2ccc3c(c2)OCO3)CC1 | · | -0.09
96 | CSC1=C(C#N)C(c2cccc(Br)c2)CC(=O)N1 (stereo not drawn) | · | -0.2
97 | CSc1nsc(SC)c1NC(=O)OCc1ccccc1 | · | -1
98 | COc1ccc(-c2nc3n(n2)C(c2ccccc2Cl)C(C(N)=O)=C(C)N3)cc1 (stereo not drawn) | · | 0.66
99 | O=C(Nc1nc2cc3c(cc2s1)OCO3)C1=COCCO1 | · | 0.65
100 | N#CCCn1nnc(-c2ccccc2F)n1 | · | -0.58
101 | O=C(CN1CCN(Cc2ccccc2Cl)C1=O)N1CCCCCC1 | · | 0.98
102 | CC1Cc2nc(SCC(=O)Nc3ccc4c(c3)OCO4)n(-c3ccc(F)cc3)c(=O)c2S1 (stereo not drawn) | · | 0.07
103 | COc1ccc(CCNC(=O)C2CCCN(S(C)(=O)=O)C2)cc1OC (stereo not drawn) | · | 0.47
104 | CC(=O)Nc1ccc(S(=O)(=O)N2CCSCC2)cc1 | · | -0.14
105 | c1ccc2sc(SCc3ccc(-c4nnco4)cc3)nc2c1 | · | 0.48
106 | CC(C)(C)/C(O)=C(/C#N)c1nc2ccccc2[nH]1 | · | 0.94
107 | Cc1ccc2c(c1)-c1c(cnn1CC(=O)NC(C)CCc1ccco1)CO2 (stereo not drawn) | · | 0.78
108 | CCOC(=O)N1CCC(N2C(=O)c3ccccc3C2=O)CC1 | · | 0.34
109 | CC(C)OCCCNC(=O)CN1CCN(Cc2ccccc2Cl)C1=O | · | -0.56
110 | CCCCc1cc(=O)oc2cc(OCC(=O)N(CC)CC)ccc12 | · | -0.43
111 | O=C(CCCn1c(=O)[nH]c2cc(Cl)ccc2c1=O)NCCCN1CCCC1 | · | -0.86
112 | COc1ccccc1S(=O)(=O)Cc1ccc(C(=O)N2CCN(c3ccccn3)CC2)o1 | · | -0.57
113 | CCOc1cc(C2C3=C(CCCC3=O)Nc3nc(C(=O)OC)nn32)ccc1OC (stereo not drawn) | i | ·
114 | CCCC/S(CC1CC1(Cl)Cl)=N\S(=O)(=O)c1ccc(C)cc1 (stereo not drawn) | i | ·
115 | COc1ccc2c(c1)CC/C(=C\c1ccc(OC)c(Cn3nc(C)cc3C)c1)C2=O | i | ·
116 | COC(=O)C1(CC(C)C)C=CC[N+]1(C)C (stereo not drawn) | i | ·
117 | CCn1c(CNC(=O)Cc2ccc(OC)cc2)nnc1SCCOc1ccccc1 | i | ·
118 | Clc1ccc(C2[C@H]3CN(CC4CCCCC4)[C@H](c4ccccc4)C34CC2(c2cccnc2)C4)cn1 (stereo partly drawn) | i | ·
119 | Cc1nc([N+](=O)[O-])c(Br)n1CC(=O)c1ccc(Br)cc1 | i | ·
120 | S=C1NCCOCCOCCOCCN1 | i | ·

(listing goes on)
cpd | SMILES | MT1-MMP reporter | WNV NS2B-NS3 inh
121 | COC(=O)[C@H]1C[C@@H]1[C@H](NS(=O)(=O)c1ccc(-c2ccccc2)cc1)c1ccccc1 | i | ·
122 | Cc1ccccc1-n1nc(C(=O)O)cc1-c1ccccc1 | i | ·
123 | CN(C)C(=O)NC(O)C(Cl)Cl (stereo not drawn) | i | ·
124 | C=CCn1c(Cc2ccc(OC)cc2)nnc1SCC(N)=O | i | ·
125 | COc1ccc(OC)c(-c2cc(C3CCN(c4ncccc4[N+](=O)[O-])CC3)[nH]n2)c1 | i | ·
